Anthrax LT inh: anthrax lethal toxin internalization inhibition; Cells, anthrax lethal toxin internalization, FRET ratio (460/530); actives 0.67% (n = 70,000); Potency, µM (doses to about 40 µM), without a hit: at the top dose activity change, negative = inhibition, usual class: inhibitors; active = well fitted falling ratio curve with the 530 nm signal flat; inconclusive = other ratio curves, or a change in one channel alone; inactive = flat curves in the ratio and both channels; the % refers to the ratio; note: % is set by controls: 0 for no effect and ±100 for the full control effect; nearly all actives have a fitted effect of over 50% in size; tested in ME-180 cells; beta-lactamase reporter
Prx2 Sm inh: blocks S. mansoni peroxiredoxin 2 enzymatic activity; S. mansoni Prx2 activity coupled to TGR/GSH (TGR is thioredoxin glutathione reductase), NADPH fluorescence loss, qHTS; some inactives read as strong as hits; Potency, µM; actives 0.07% (n = 65,000); AID 448; active means full or partial inhibition curve with a strong effect at the top dose; inconclusive means weaker partial or single-point curve; inactive means no accepted curve; note: series up to 57 µM; many of its hits are not listed in these tables
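Prx2 inhibition was measured as reduced NADPH consumption when electrons flowed from NADPH through TGR and glutathione to Prx2 and H2O2. Plates were read kinetically over 8 min; enzyme reagents were held at 4 deg C during dispensing.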
* = called active by the depositor; i = inactive; u = inconclusive; x = no result given; & = joins results of further samples; [ ] = dose if it differs, or a comment. Potency is the fitted concentration of half-maximal effect.

Below each SMILES: Anthrax LT inh	Prx2 Sm inh
- CCOC(=O)C1(Cc2ccccc2)NC(c2ccccc2F)C2C(=O)N(CC)C(=O)C21 (configuration not stated)
 : -18.8%	>57
- COc1ccc(-n2c(=O)cc(N3CCN(c4ccccc4)CC3)[nH]c2=O)cc1
 : -9.5%	>57
- CCN(CC)CCCn1c(C)cc2c(c1=O)C(c1cc(OC)c(OC)cc1OC)C(C#N)=C(N)O2 (configuration not stated)
 : x	>57
- CCc1nc2sc3c(c2c(=O)n1N)CCC3
 : -12.6%	>57
- CCOC(=O)COn1c(=O)c(-c2cccs2)[n+]([O-])c2ccccc21
 : 12.0%	>57
- CCCn1cnc2c(SCc3ccc(Cl)cc3)nc(N)nc21
 : u	>57
- O=C(Cc1c[nH]c2ccccc12)Nc1nc2ccccc2[nH]1
 : -2.1%	>57
- N#Cc1sc2nc3c(c(-c4ccco4)c2c1N)CCCC3
 : -13.9%	>57
- O=c1c(C(c2nnnn2C2CCCCC2)N2CCCCC2)coc2ccc(Cl)cc12 (configuration not stated)
 : 2.2%	>57
- CCCn1c(NCc2cc(C)ccc2O)nc2ccccc21
 : -17.5%	x
- Cc1ccc(S(=O)(=O)N2CCN(C(=O)CSc3nnc(C)s3)C2)cc1
 : 4.2%	>57
- Clc1ccc(OCc2nnc(SCc3nnc(-c4ccccc4)o3)o2)c(Cl)c1
 : u	>57
- COC(=O)c1ccccc1NC(=O)C1CCN(C(=O)c2cc(OC)c(OC)c(OC)c2)CC1
 : -0.5%	>57
- O=C(c1cccc(F)c1)N1CCN(CC2CC3C=CC2C3)CC1 (configuration not stated)
 : -9.6%	>57
- O=C(Nc1ccc2c(c1)OCCO2)C1CCN(S(=O)(=O)c2cccc3nsnc23)CC1
 : -9.4%	>57
- Cc1[nH]c2ccc(CNS(=O)(=O)c3ccc(S(=O)(=O)N4CCOCC4)cc3)cc2c1C
 : -6.6%	>57
- COC(=O)c1cc2oc(C)cc2n1CC(=O)Nc1ccc(C)c(C)c1
 : u	>57
- Cc1ccc(NC(=O)N2CCC(C(=O)NCc3ccccc3)CC2)cc1
 : -23.2%	>57
- C=CCn1c(=O)c2ccccc2n2c(SCC(=O)NCc3cccs3)nnc12
 : 6.0%	>57
- CCCCC(=O)NCCNc1nc2c(c(=O)n(C)c(=O)n2C)n1Cc1ccc(F)cc1
 : -17.4%	>57
- CCOC(=O)c1oc2ccccc2c1NC(=O)c1cc(OC)cc(OC)c1
 : u	>57
- CNC(=O)O/N=C/C(C)(C)SC
 : u	x
- N#CC1=C(N)NC(SCC(=O)O)=C(C#N)C12CCCC2
 : -12.4%	>57
- CN1CCN(c2ncc3nc(-c4cn(C)c5ccccc45)c(=O)n(CCc4ccccc4)c3n2)CC1
 : u	>57
- COc1ccc(-c2nc(NC(=O)c3cc(C(C)(C)C)nn3C)sc2C)cc1
 : 5.01µM*	>57
- C=CCOC(=O)CC(NC(=O)c1ccccc1)c1ccccc1 (configuration not stated)
 : -5.6%	x
- Cc1noc(C)c1C(=O)NC1CCCc2ccccc21 (configuration not stated)
 : -5.7%	>57
- O=S(=O)(c1cccc(-c2nc3n(n2)Cc2ccccc2-3)c1)N1CCCC1
 : -5.9%	>57
- CCN1C(=O)C2(C(C#N)=C(N)Oc3n[nH]c(COC)c32)c2ccccc21 (configuration not stated)
 : -17.5%	>57
- Cc1nc(N2CCC(C)CC2)c2oc3ccccc3c2n1
 : -17.0%	>57
- CCOc1nc(Nc2ccc(-c3nc4ccccc4o3)cc2)nc(N2CCOCC2)n1
 : 5.7%	>57
- Cc1cc(Cl)ccc1OCC(=O)Oc1c(Cl)c(Cl)c(Cl)c(Cl)c1Cl
 : -9.1%[8 µM]	>57
- Cc1oc2c(O)c(O)ccc2c(=O)c1-c1cnn(-c2ccccc2)c1
 : 7.94µM*	x
- C=CCn1c(C)cc(C(=O)COc2ncnc3sccc23)c1C
 : -1.8%	>57
- O=C(c1cnccn1)N1CCC[C@@]2(CCN(Cc3ccccc3)C2)C1
 : 2.2%	>57
- CCc1ccc2c(c1)CCCN2C(=O)c1ccccc1C(=O)O
 : -1.9%	>57
- O=C(CCN1C(=O)c2ccccc2S1(=O)=O)N1CCN(c2ccccc2)CC1
 : 23.3%	>57
- COc1ccc(C(=O)NCc2cn3c(C)csc3n2)cc1OC
 : -7.5%	>57
- O=C(O)C1C2C=CC(C2)C1C(=O)Nc1ccc(C(=O)N2CCCCC2)c(Cl)c1 (configuration not stated)
 : 13.5%	>57
- Cn1c(SCC(=O)Nc2ccc(F)cc2)nnc1-c1cccnc1
 : 1.0%	>57
- COC(=O)c1c(C)[nH]c(C(=O)COC(=O)Cc2ccc3c(c2)OCCO3)c1C
 : -3.9%	>57
- COc1ccc(C2C(C(N)=O)=C(C)Nc3nc(-c4ccccc4Cl)nn32)c(OC)c1 (configuration not stated)
 : 8.0%	>57
- Cn1c(CNc2ccccn2)c(C#N)c2ccccc21
 : u	>57
- O=C(NCc1ccco1)C(c1cccnc1)N(C(=O)Cn1nnc2ccccc21)c1ccccc1 (configuration not stated)
 : -10.2%	>57
- COC(=O)[C@@]1(Cc2ccc(F)cc2)[C@H]2c3cc(C(=O)N(C)C)n(Cc4ccc(OC)c(OC)c4)c3C[C@H]2CN1C(=O)c1ccccc1
 : -7.1%	>57
- COc1cc(C2C3=C(Nc4ncnn42)c2ccccc2CC3)cc(OC)c1OC (configuration not stated)
 : u	>57
- CNCC[C@H](Oc1ccccc1C)c1ccccc1
 : 0.1%	>57
- COC(=O)C1=C(C)N=C2SCCC(=O)N2C1c1ccc(C(=O)OC)cc1 (configuration not stated)
 : 3.2%	>57
- Cc1ccc(CNc2cc(-c3nn4c(C)nnc4s3)ccc2C)s1
 : -9.5%	>57
- COCCN1C(=O)c2oc3ccccc3c(=O)c2C1c1ccc(O)c(OC)c1 (configuration not stated)
 : 1.9%	>57
- N#Cc1nc(COc2ccc(Cl)cc2Cl)oc1N1CCOCC1
 : -15.6%	>57
- O=C(Nc1ccc2c(c1)OCO2)N1CCN(S(=O)(=O)c2ccc(Cl)cc2)CC1
 : -3.5%	>57
- CCN(CC)CCCNC(CC(=O)O)C(=O)O (configuration not stated)
 : 2.8%	>57
- Cc1ccc2ccccc2c1[N+](=O)[O-]
 : 1.1%	x
- COc1ccc2c(c1)C13CCCC[C@@H]1C(C2)N(C)CC3 (some centres not stated)
 : 2.5%[3.58 µM]	>57
- O=C(NCc1cccnc1)c1cc(-c2ccccc2)on1
 : u	>57
- COc1cccc(-n2nnnc2SCC(=O)c2cc(OC)ccc2OC)c1
 : u	>57
- COc1cc(-c2nn3c(Cc4ccccc4)nnc3s2)cc(OC)c1OC
 : 0.3%	x
- COc1ccc(-c2nnc(SCC(=O)/C(C#N)=C(\C)N)o2)cc1
 : -7.0%	>57
- COc1ccc(Nc2nc(N)nc(SCc3nnc(C)s3)n2)cc1
 : 4.9%	>57

Next part:
Below each SMILES: Anthrax LT inh	Prx2 Sm inh
- Cc1ccccc1NS(=O)(=O)c1ccc(F)cc1
 : 3.3%	>57
- COc1cccc(-c2nnc(SCC(=O)Nc3cc(C)ccc3OC)n2N)c1
 : 5.6%	>57
- COCCNC(=O)C(C)OC(=O)c1cc2occc2n1C (configuration not stated)
 : 11.5%	>57
- CCOC(=O)c1ccccc1NC(=O)c1cn(CC)c2nc(C)ccc2c1=O
 : -5.4%	>57
- COc1ccc(NC(=O)N2CCCC3(CCN(C(=O)c4cccn4C)CC3)C2)cc1
 : u	>57
- Cc1ccc2nc(N3CCOCC3)c3nncn3c2c1
 : 8.2%	>57
- Cc1cc(NC(=O)COn2nnc3ccc(Cl)cc32)no1
 : 12.4%	>57
- COC(=O)COc1ccc(S(=O)(=O)Nc2ccccc2C(=O)OC)cc1
 : -6.8%	>57
- COC(=O)C1=C(C)N(Cc2ccccc2)C2=C3C(=O)N(C)C(=O)C3[C@@](O)(C(=O)OC)C(=O)N2C1c1ccccc1 (some centres not stated)
 : -5.6%&-10.2%[8 µM]	x
- CCS(=O)(=O)Nc1cc(-c2nc3cccnc3s2)ccc1C
 : 21.4%	>57
- COc1ccc(-c2n[nH]c(=S)n2C2CCCCC2)cc1
 : -29.0%	x
- COc1ccc(-c2nnc3ccc(SC)nn23)cc1
 : 2.5%	>57
- CCC(C)[C@@H](C(=O)Nc1ccc(OC)c(OC)c1)N1Cc2ccccc2C1=O (some centres not stated)
 : 9.3%	>57
- CCCCn1c(O)c(C(CC)=NCCN2CCCCC2)c(=O)[nH]c1=O
 : 11.8%	>57
- Cn1c(=O)c2c(ncn2CC(O)CNc2ccc(Cl)cc2)n(C)c1=O (configuration not stated)
 : -3.5%	>57
- COc1ccccc1N=C1SCCCN1C
 : -16.5%	>57
- N#CCCn1c(=O)c(-c2cccs2)nc2cnc(Oc3ccccc3)nc21
 : u	>57
- CCc1c(C)n2nc(C)cc2[nH]c1=O
 : 0.4%	>57
- Cc1nc2nc(C)c(CCC(=O)NC(C)c3ccc4c(c3)OCCO4)c(C)n2n1 (configuration not stated)
 : -17.2%	>57
- Cc1nnc(SCC(C)C)[nH]c1=O
 : 4.5%	>57
- O=C(NCCCNCc1ccccc1)c1ccccn1
 : -17.4%	>57
- O=C1c2ccccc2-c2ccc(N=[N+]([O-])c3ccc4c(c3)C(=O)c3ccccc3-4)cc21
 : -12.9%[8 µM]	>57
- CC[C@@H](c1ccccc1)n1c(=O)n2n(c1=O)[C@H]1[C@H](O)[C@H]3O[C@@H]3/C(=N/OC[C@@H](O)COCc3ccco3)[C@@H]1CC2
 : -8.8%[8 µM]	x
- Cc1ccc2nc(N3CCC(C(=O)O)CC3)nc(-c3ccccc3)c2c1
 : x	>57
- CCOc1ccc(CN(CCO)CCO)cc1C(=O)OC
 : -2.3%	>57
- O=C(NCCC1=CCCCC1)C1CCCN(S(=O)(=O)c2cccnc2)C1 (configuration not stated)
 : -13.7%	>57
- O=C(CSc1oc(-c2ccco2)nc1S(=O)(=O)c1ccccc1)NCC1CCCO1 (configuration not stated)
 : -1.9%	>57
- O=c1c(O)c(-c2ccc(O)cc2)oc2ccc(O)cc12
 : -20.3%	i
- Nc1ccc(Cl)c(Cl)c1
 : -10.2%	x
- CC(C)(C)OC(=O)N1CCC(C(N)=O)CC1
 : -13.2%	>57
- COC(=O)C(C#N)c1nc2ccccc2nc1N1CCN(Cc2ccc3c(c2)OCO3)CC1 (configuration not stated)
 : 1.4%	>57
- O=C(N[C@@H](c1ccccc1)[C@@H]1C[C@H]1C(=O)NCc1ccccc1)OCc1ccccc1
 : 2.1%	>57
- COc1cc(NC(=O)c2ccco2)ccc1NC(=O)c1ccccc1Cl
 : 2.9%	>57
- Cc1csc(NC(=O)CSc2nnc(Cc3cccn3C)n2-c2ccc(F)cc2)n1
 : u	>57
- CCN(CC)C(=O)C1CCCN(Cc2ccc(N(C)C)cc2)C1 (configuration not stated)
 : -9.6%	x
- O=C(NCc1ccc2c(c1)OCO2)C1CCCN1C(=O)Nc1ccc(F)cc1 (configuration not stated)
 : 15.7%	>57
- O=C1CCc2nc3sc4c(c3c(=O)n2N1)CCCC4
 : -3.3%	>57
- Cc1noc(C)c1-c1ccc2ncnc(N3CCC(C(=O)O)CC3)c2c1
 : -0.5%	>57
- COC(=O)c1c(NC(=O)c2ccoc2C)sc2c1CCC2
 : u	>57
- N#CCCn1c(=O)c(-c2ccc(F)cc2)nc2cnc(OCc3ccccc3)nc21
 : u	>11.4

Quoted at random: three records from the list, in no set order.
Below each SMILES: Anthrax LT inh	Prx2 Sm inh
- O=C(N[C@@H](c1ccccc1)[C@@H]1C[C@H]1C(=O)NCc1ccccc1)OCc1ccccc1
 : 2.1%	>57
- O=C(NCCC1=CCCCC1)C1CCCN(S(=O)(=O)c2cccnc2)C1 (configuration not stated)
 : -13.7%	>57
- O=C(NCc1ccc2c(c1)OCO2)C1CCCN1C(=O)Nc1ccc(F)cc1 (configuration not stated)
 : 15.7%	>57

Back to the main list; the two compounds before the break are reprinted first.
Below each SMILES: Anthrax LT inh	Prx2 Sm inh
- COC(=O)c1c(NC(=O)c2ccoc2C)sc2c1CCC2
 : u	>57
- N#CCCn1c(=O)c(-c2ccc(F)cc2)nc2cnc(OCc3ccccc3)nc21
 : u	>11.4
- CCCCCCSc1ncc(C#N)c(N)n1
 : -27.3%	>57
- COc1ccc2c(c1)C1(Nc3ccccc3-c3nc4ccccc4n31)C(=O)N2 (configuration not stated)
 : 10.6%	>57
- O=C(CCNS(=O)(=O)c1cccs1)NCc1cccs1
 : -15.3%	>57
- COc1ccc(O)c(C(=O)c2cnn(C(=O)c3cc(C)oc3C)c2)c1
 : 0.8%	>57
- C=CCSC1=C(C#N)C(c2ccccc2OCC)CC(=O)N1 (configuration not stated)
 : -8.6%	>57
- Cn1c(CN2CCOCC2)nc2cc(NC(=O)c3ccc(Cl)cc3)ccc21
 : u	>57
- CCn1c(SC/C=C/c2ccccc2)nnc1-c1cnccn1
 : -6.2%	>57
- Cc1ccc(-n2nnnc2SCC(=O)N2c3ccccc3NC(=O)C2(C)C)cc1
 : 11.5%	>57
- Clc1ccccc1-c1ccc(/C=N/n2cnnc2)o1
 : 9.0%	x
- Cc1noc(C)c1S(=O)(=O)NCC(=O)O
 : -0.6%	>57
- CCC(=O)Nc1sc2c(c1C(N)=O)CCN(C(C)=O)C2
 : 6.3%	>57
- COCCn1nnnc1C(c1ccccc1OC)N1CCN(c2ccccc2)CC1 (configuration not stated)
 : 12.1%	>57
- CCCN1Cc2cccc(C(=O)N3CCN(c4cc(Cl)ccc4C)CC3)c2C1=O
 : -5.3%	>57

Source: PubChem (National Center for Advancing Translational Sciences (NCATS))

This is a subset (hit frequency here may not be typical).
